From PubChem BioAssay
Bfl-1 A1 inh – inhibitors of the anti-apoptotic protein A1, read as caspase activation. hit rate 0.066% among 330,000. AID 2462. MEF A1-2A-BIM cells, Caspase-Glo 3/7 luminescence, 3 h; percent of clofoctol response, vehicle zero. caspase activation, % (test concentration not listed);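 active = over half of replicate activation scores above 10%, or exactly half above 10 with the replicate mean above 10; inconclusive = replicate mean below 10 yet half the replicates above 10; inactive = over half of replicates below 10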;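 also: wells of about 30 µL received 50 nL stock; many hits fall short of the cut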
T cruzi repl – T. cruzi replication inhibition. T. cruzi beta-gal in NIH3T3, luminescence, 90 h. inhibition, % (no concentration beside the values). hit rate 1.4% among 300,000. AID 1885;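 active = mean inhibition across valid replicates above about 55%, limit read from the data; inconclusive = mean below that limit but half or more replicates reach it; inactive = mean below it, under half of replicates reach it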;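 also: signal also drops with host cell toxicity which is not excluded here; 0% = plate median of DMSO wells and 100% = zero luminescence signal; higher percent means less beta-gal luminescence so fewer parasites; stock transfer was 50 nL into about 50 µL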
RanGTP-Impb inh – disruptors of Ran-importin-beta complex formation – biochemical, FRET, CFP-Ran, YFP-importin-beta, homogeneous, primary screen. inhibition, % (test concentration not listed). hit rate 1.1% among 300,000. cell-free CFP-Ran/YFP-importin-beta FRET ratio;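 active = most replicates above 15%; inconclusive = exactly half above 15%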;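 also: 0% = DMSO wells and 100% = Ran loaded with GDP instead of GTP; wells of about 40 µL received 100 nL stock; the first replicate is given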
Beta cell apopt – beta cell apoptosis inhibition | INS-1E cytokine-induced death, ATP luminescence, 48 h; percent of positive-control rescue, neutral wells zero | protection from apoptosis, % (test concentration not listed) | hit rate 0.8% among 300,000;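 active = all replicates at 75% or more, or half of them and the mean; inconclusive = half reach 75% but not the mean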;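 also: 0% = cytokine-treated negative control wells and 100% = positive control rescue; higher means more ATP so stronger rescue from cytokine killing; wells of about 40 µL received 100 nL stock; the first replicate is given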
AF4-AF9 inh – inhibitors of human MLL-AF4/AF9 interaction. P42568. AlphaScreen, biotin-AF4 peptide binding to FLAG-AF9. inhibition, % at 10 µM. hit rate 0.47% among 350,000;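 active = every replicate reaching a set inhibition limit, whatever the replicate mean, cut at about 25% in these data; inconclusive = mean inhibition reaches that limit but some replicates miss it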;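 also: 0% = plate neutral control median and 100% = total signal loss; the record names both 10 and 1 µM as test concentration; the first replicate is given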
Target sequence (P42568 whole entry, looked up): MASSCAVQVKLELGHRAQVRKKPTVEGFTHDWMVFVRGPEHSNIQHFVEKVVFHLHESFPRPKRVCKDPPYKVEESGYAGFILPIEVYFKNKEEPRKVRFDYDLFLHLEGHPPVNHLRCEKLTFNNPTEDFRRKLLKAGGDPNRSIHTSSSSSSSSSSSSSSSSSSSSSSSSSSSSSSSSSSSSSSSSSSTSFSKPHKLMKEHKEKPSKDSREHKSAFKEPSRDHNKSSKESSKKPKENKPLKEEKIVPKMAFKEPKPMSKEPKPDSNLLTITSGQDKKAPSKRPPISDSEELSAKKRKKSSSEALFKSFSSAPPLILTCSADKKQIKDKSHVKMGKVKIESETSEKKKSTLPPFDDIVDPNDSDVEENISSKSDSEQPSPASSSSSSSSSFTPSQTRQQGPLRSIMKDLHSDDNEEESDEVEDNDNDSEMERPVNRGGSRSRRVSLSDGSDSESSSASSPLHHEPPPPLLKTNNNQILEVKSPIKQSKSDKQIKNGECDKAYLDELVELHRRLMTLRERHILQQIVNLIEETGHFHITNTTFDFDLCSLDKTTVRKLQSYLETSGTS
Vif A3G – HIV-1 Vif–A3G interaction blockers – biochemical, TR-FRET, GST-Vif 1-94, biotin-A3G peptide, dose response retest, primary screen (AID 1117319). TR-FRET GST-Vif / biotin-A3G peptide binding; higher % means a stronger effect; test concentration not given here; strong numbers were not always called active. inhibition, %, or IC50 in µM where a hit was titrated. hit rate 0.57% among 260,000;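 active = above the screen mean plus three standard deviations and confirmed in dose response; inconclusive = results disagree or hit not tested in dose response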;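 also: Vif residues 1-94 fused to GST binding biotinylated APOBEC3G peptide 110-148; 0% = full assay without inhibitor and 100% = GST in place of GST-Vif; retest series ran down from 100 µM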
Ecoli rRNA inh – inhibitors of bacterial rRNA selective over humanized ribosomes. GFP signal change (wild-type ribosome), % (test concentration not listed). hit rate 1.6% among 350,000. E. coli WT GFP vs humanized-ribosome RFP mutants, fluorescence, 24 h; active compounds read low; DMSO median 0, no signal -100;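 active = significant combined selectivity score with lowered wild-type GFP, culture density cut under 30%, mutant RFP and density less affected; inactive = any of these conditions unmet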; also: one replicate is shown; some compounds called inactive have numbers as strong as hits
Calb FLC – affects C. albicans growth with fluconazole. AID 1979. growth inhibition, % (no concentration beside the values). C. albicans CaCi-2 (fluconazole-resistant clinical isolate) + fluconazole, Alamar Blue growth, 48 h. hit rate 0.57% among 300,000;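 active = most replicates above 75%; inconclusive = exactly half above 75%; inactive = most below 75%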;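 also: all wells also contain fluconazole at 8 µg/ml as a sub-toxic cotreatment; 0% = median of DMSO wells and 100% = median of geldanamycin control wells; wells of about 8 µL received 7.5 nL stock; the first replicate is given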
Ecoli rRNA inh OD600 – also measured in Ecoli rRNA inh; calls as there; OD600 change, %; measured here: OD600 growth;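 optical density of the mix in the first replicate; 0 = DMSO median and -100 = no signal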
Ecoli rRNA inh RFP – also measured in Ecoli rRNA inh; calls as there; RFP signal change, %; measured here: RFP humanized mutant strains;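 first replicate; 0 = DMSO median and -100 = no signal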
Active calls of the source: *. These rows are one share of the data; the hit share may differ from the screen's.

Screening COc1ccc(C(=O)NC(=S)Nc2ccc(S(=O)(=O)Nc3cc(OC)ncn3)cc2)cc1 returned Bfl-1 A1 inh -0.3, T cruzi repl -10, RanGTP-Impb inh 11, Beta cell apopt 3, AF4-AF9 inh 1.5, Ecoli rRNA inh 7, Calb FLC 0, Ecoli rRNA inh OD600 5 and Ecoli rRNA inh RFP 0.7.
Screening Cc1ccc(C(F)(F)F)cc1NC(N)=S returned Bfl-1 A1 inh 0.2, T cruzi repl 16, RanGTP-Impb inh 4.5, Beta cell apopt -4, AF4-AF9 inh -2.7, Ecoli rRNA inh 13, Calb FLC -13, Ecoli rRNA inh OD600 12 and Ecoli rRNA inh RFP -1.7.
`Cc1cc(N2C(=O)C=CC2=O)c([N+](=O)[O-])cc1C` gave Bfl-1 A1 inh 4.7, T cruzi repl 38, Beta cell apopt -8 and Vif A3G 15%.
For O=C1c2ccccc2C(=O)N1CCC(O)C[N+](=O)[O-] (centres undefined) the results were Bfl-1 A1 inh 0.1, T cruzi repl -6, RanGTP-Impb inh -3.2, Beta cell apopt -6, AF4-AF9 inh -0.6, Vif A3G 0%, Ecoli rRNA inh 13, Calb FLC inconclusive, Ecoli rRNA inh OD600 16 and Ecoli rRNA inh RFP 2.3.
`CCOC(=O)C1(Cc2ccccc2)CCN(Cc2cc(=O)c3ccccc3[nH]2)CC1` gave Bfl-1 A1 inh 0.5, T cruzi repl 35, RanGTP-Impb inh 0.1, Beta cell apopt 4, AF4-AF9 inh 2.8, Vif A3G -4%, Ecoli rRNA inh -5, Calb FLC -3, Ecoli rRNA inh OD600 -2 and Ecoli rRNA inh RFP 3.2.
Screening Clc1ccc(-c2csc(N3CCc4ccccc4C3)n2)cc1 returned Bfl-1 A1 inh 1.4, T cruzi repl -6, RanGTP-Impb inh -3.0, Beta cell apopt 1, Vif A3G 8% and Calb FLC 1.
COc1cc(C(=O)NCCOc2cc(C)cc(C)c2)c(Br)c(OC)c1OC was read as Bfl-1 A1 inh 1.0, T cruzi repl 11, RanGTP-Impb inh 6.8, Beta cell apopt -1, Vif A3G -1% and Calb FLC -2.
`CN(CC(=O)Nc1ccc(Cl)cc1)C(=O)CNC(=O)c1ccc(Br)o1` gave Bfl-1 A1 inh -0.7, T cruzi repl -3, RanGTP-Impb inh inconclusive, AF4-AF9 inh -0.1, Vif A3G 1%, Ecoli rRNA inh -3, Calb FLC -8, Ecoli rRNA inh OD600 23 and Ecoli rRNA inh RFP -0.2.
`COC(=O)C(C)Sc1nc(N)c(NC(=O)c2ccco2)c(=O)[nH]1` (centres undefined) gave Bfl-1 A1 inh -0.2, T cruzi repl 5, RanGTP-Impb inh 2.3, Beta cell apopt -1, AF4-AF9 inh 4.7, Ecoli rRNA inh 11, Calb FLC -2, Ecoli rRNA inh OD600 18 and Ecoli rRNA inh RFP 0.3.
O=C(NCCc1ccccc1F)c1ccc2c(c1)OCCO2 was read as Bfl-1 A1 inh -8.6, T cruzi repl 0, RanGTP-Impb inh -1.2, Beta cell apopt 1, AF4-AF9 inh -8.9, Ecoli rRNA inh -5, Calb FLC 7, Ecoli rRNA inh OD600 -6 and Ecoli rRNA inh RFP -4.7.
For CCCc1nnc2c(N(C)S(=O)(=O)c3ccc(C)cc3)nc3ccccc3n12 the results were Bfl-1 A1 inh -0.3, T cruzi repl 15, RanGTP-Impb inh 2.8, Beta cell apopt -4, AF4-AF9 inh -3.4, Vif A3G -15%, Ecoli rRNA inh 7, Calb FLC -3, Ecoli rRNA inh OD600 6 and Ecoli rRNA inh RFP -6.1.
CCOC(=O)/C(C(N)=NCC(C)C)=C(/O)c1ccccc1 was read as Bfl-1 A1 inh -2.6, T cruzi repl -3, RanGTP-Impb inh 4.6, Vif A3G 0% and Calb FLC 3.
`O=C(Nc1cc(C(F)(F)F)ccc1N1CCCC1)c1ccc2c(c1)OCO2` gave Bfl-1 A1 inh -0.9, T cruzi repl 9, RanGTP-Impb inh inconclusive, Beta cell apopt -3, Vif A3G -5% and Calb FLC -3.
Screening CCCCOC(=O)c1cc(=O)[nH]c2ccccc12 returned Bfl-1 A1 inh 0.2, T cruzi repl 11, RanGTP-Impb inh inconclusive, Beta cell apopt 4, AF4-AF9 inh 0.0, Vif A3G 4%, Ecoli rRNA inh -8, Calb FLC -6, Ecoli rRNA inh OD600 -5 and Ecoli rRNA inh RFP -3.7.
Screening COC(=O)c1ccccc1NC(=O)c1cccc(NC(=O)CSCc2ccccc2)c1C returned Bfl-1 A1 inh 1.2, T cruzi repl 4, RanGTP-Impb inh 6.7, Beta cell apopt 4, Vif A3G 4% and Calb FLC -2.
`O=[N+]([O-])c1ccc2nccn2c1` gave Bfl-1 A1 inh -0.1, T cruzi repl 3, RanGTP-Impb inh -0.5, Beta cell apopt -6, Vif A3G -2% and Calb FLC 2.
CCOC(=O)c1nn(-c2ccc(F)cc2)c2nc(-c3ccccc3)c(C#N)c(=O)n12 was read as Bfl-1 A1 inh 0.5, T cruzi repl 18, RanGTP-Impb inh 1.8, Beta cell apopt 3, Vif A3G -23% and Calb FLC -27.
FC(F)(F)c1cccc(-c2nnc3ccc(C(F)(F)F)cn23)c1 was read as Bfl-1 A1 inh -0.2, T cruzi repl 4, RanGTP-Impb inh inconclusive, Vif A3G -1% and Calb FLC 12.
`CC(=O)c1cccc(N2C(=O)C3C(C(=O)Nc4cc(C)on4)C4(C)C=CC3(O4)C2C(=O)NC(C)(C)C)c1` (centres undefined) gave Bfl-1 A1 inh -0.7, T cruzi repl -13, RanGTP-Impb inh 2.4, Beta cell apopt 0, AF4-AF9 inh -2.9, Vif A3G -16%, Ecoli rRNA inh 6, Calb FLC 17, Ecoli rRNA inh OD600 -2 and Ecoli rRNA inh RFP -10.
For O=S(=O)(c1ccc(SCCOc2ccc(F)cc2)nc1)N1CCCC1 the results were Bfl-1 A1 inh -0.3, Beta cell apopt -5, AF4-AF9 inh -1.6, Vif A3G -13%, Ecoli rRNA inh -13, Ecoli rRNA inh OD600 -23 and Ecoli rRNA inh RFP -4.4.
For CCNC(=O)OCC(CC)NC(=O)OCC(C)C (centres undefined) the results were Bfl-1 A1 inh 0.3, T cruzi repl -14, RanGTP-Impb inh 3.6, Beta cell apopt -1, Vif A3G 64% and Calb FLC -5.
Screening O=C(O)CCn1cc(-c2ccc(Cl)cc2)nc1-c1ccncc1 returned Bfl-1 A1 inh -0.3, Beta cell apopt 4, AF4-AF9 inh 2.6, Ecoli rRNA inh 2, Ecoli rRNA inh OD600 3 and Ecoli rRNA inh RFP 5.6.
Screening Cc1nc(NC(=O)/C=C/c2ccc(F)cc2)sc1C(=O)N(C)C returned Bfl-1 A1 inh 0.9, T cruzi repl -22, RanGTP-Impb inh -3.2, Beta cell apopt -5, Vif A3G 1% and Calb FLC -3.
For COCCN1C(=O)c2ccc(C(=O)O)cc2C1=O the results were Bfl-1 A1 inh -0.3, T cruzi repl -26, RanGTP-Impb inh 1.8, Beta cell apopt -3, Vif A3G -2% and Calb FLC -5.
For O=C(CCN1CCN(c2ccc(F)cc2)CC1)Nc1ccc(F)cc1 the results were Bfl-1 A1 inh 0.9, T cruzi repl -2, RanGTP-Impb inh -0.1, Beta cell apopt -1, Vif A3G 10% and Calb FLC -4.
Screening Cc1nn(C)cc1CN(C)C(=O)c1nn2c(c1Br)NC(c1cccs1)CC2C(F)(F)F (centres undefined) returned Bfl-1 A1 inh 0.4, T cruzi repl -15, RanGTP-Impb inh 1.2, Beta cell apopt -5, AF4-AF9 inh -7.0, Ecoli rRNA inh -8, Calb FLC 2, Ecoli rRNA inh OD600 -11 and Ecoli rRNA inh RFP -0.1.
COc1cccc(NC=C2C(=O)OC3(CCCCC3)OC2=O)c1 was read as Bfl-1 A1 inh -0.4, T cruzi repl -5, RanGTP-Impb inh 1.2, Beta cell apopt -4, Vif A3G -3% and Calb FLC 2.
`CC(Sc1nnc2c(n1)[nH]c1ccccc12)C(=O)NC1CCCCC1` (centres undefined) gave Bfl-1 A1 inh -0.4, T cruzi repl 20, RanGTP-Impb inh 5.3, Beta cell apopt 18, AF4-AF9 inh 0.9, Ecoli rRNA inh -1, Calb FLC -6, Ecoli rRNA inh OD600 7 and Ecoli rRNA inh RFP 1.2.
For Cc1nn(C)c(C)c1NS(=O)(=O)c1ccc(Cl)cc1 the results were Bfl-1 A1 inh 0.2, T cruzi repl -16, RanGTP-Impb inh 0.2, Beta cell apopt -4, AF4-AF9 inh -28, Ecoli rRNA inh 3, Calb FLC -3, Ecoli rRNA inh OD600 -2 and Ecoli rRNA inh RFP 1.3.
`Cc1n[nH]c(=O)c2c(NC(=O)COC(=O)Cc3ccc(Cl)cc3Cl)oc(C)c12` gave Bfl-1 A1 inh -0.5, T cruzi repl -8, RanGTP-Impb inh -0.2, Beta cell apopt -1, AF4-AF9 inh -1.0, Ecoli rRNA inh -11, Ecoli rRNA inh OD600 -20 and Ecoli rRNA inh RFP 1.6.
Screening Nc1cccc(C(=O)Nc2ccc3nc(-c4cccnc4)[nH]c3c2)c1 returned Bfl-1 A1 inh -0.1, T cruzi repl -15, RanGTP-Impb inh -0.9, Beta cell apopt -4, AF4-AF9 inh 3.4, Vif A3G 6%, Ecoli rRNA inh 5, Calb FLC -1, Ecoli rRNA inh OD600 7 and Ecoli rRNA inh RFP 11.
CCCc1nnc(NC(=O)NCCN2C(=O)C3C4C=CC(C4)C3C2=O)s1 (centres undefined) was read as Bfl-1 A1 inh -0.2, T cruzi repl -1, RanGTP-Impb inh -3.9, Beta cell apopt -6, AF4-AF9 inh -1.3, Vif A3G 1%, Ecoli rRNA inh 8, Calb FLC -9, Ecoli rRNA inh OD600 13 and Ecoli rRNA inh RFP -2.6.
`CSCCC(NC(=O)c1cccc(C)c1)C(=O)OCC(=O)NC(=O)c1cccn1C` (centres undefined) gave Bfl-1 A1 inh -2.5, T cruzi repl -18, RanGTP-Impb inh 0.0, Vif A3G 29% and Calb FLC -5.
`Cc1c(C(=O)NCc2ccc3c(c2)OCO3)oc2ccc(Br)cc12` gave Bfl-1 A1 inh -0.1, T cruzi repl -11, RanGTP-Impb inh 2.9, Beta cell apopt -7, Vif A3G 8% and Calb FLC -15.
CC1Cc2cc(S(=O)(=O)NCc3ccccc3)ccc2N1C(=O)C1CC1 (centres undefined) was read as Bfl-1 A1 inh 0.4, T cruzi repl 20, RanGTP-Impb inh 18*, Beta cell apopt 10, AF4-AF9 inh -3.7, Ecoli rRNA inh 3, Calb FLC -5, Ecoli rRNA inh OD600 6 and Ecoli rRNA inh RFP -0.4.
Screening COc1ccc(OC)c(NC(=O)Nc2cc(C(=O)O)ccc2C)c1 returned Bfl-1 A1 inh 0.1, T cruzi repl 18, RanGTP-Impb inh -0.9, AF4-AF9 inh -0.5, Vif A3G -11%, Ecoli rRNA inh 11, Calb FLC 4, Ecoli rRNA inh OD600 6 and Ecoli rRNA inh RFP 1.2.
